gsp ag – gsp mutant agonism; gsp mutant cells, cAMP HTRF, 30 min; control for the full effect not named in the record; 340,000 compounds, 0.13% hits; Potency, µM (highest dose often 76.9 µM), inactives show at the top dose activation (cAMP increase), usual class: activators; active = well fitted activation curve with a large enough effect; inconclusive = small, poorly fitted or top-dose-only effect, or another doubt; inactive = no such curve, though single readings can be large or run the other way; cell line not stated here;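 further: phosphodiesterase inhibitor Ro 20-1724 added with compounds to block cAMP breakdown; potency means the concentration at half of the fitted maximal effect; nearly all actives have a fitted effect of over 60% in size; about a fifth of the inactives were tested at one dose only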
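Cells stably selected in G418 were plated at 2000/well, grown 16-24 hr, then given compounds in DMSO with the PDE inhibitor […] (300 uM solution added) for 30 min at 37C; cAMP was read by HTRF.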
TRPV1 potentiator – human TRPV1 potentiation; Q8NER1; TRPV1-expressing cells, Fluo-8 calcium influx, capsaicin EC20 potentiation; host cell line not named in the record; control for the full effect not named in the record; potentiation, % at 8.33 µM; 320,000 compounds, 0.02% hits; AID 540277; active means potentiation above 80%; inconclusive means 30% to 80%; inactive means below 30%; further: 0% is about no effect
Target sequence (Q8NER1 whole entry, looked up): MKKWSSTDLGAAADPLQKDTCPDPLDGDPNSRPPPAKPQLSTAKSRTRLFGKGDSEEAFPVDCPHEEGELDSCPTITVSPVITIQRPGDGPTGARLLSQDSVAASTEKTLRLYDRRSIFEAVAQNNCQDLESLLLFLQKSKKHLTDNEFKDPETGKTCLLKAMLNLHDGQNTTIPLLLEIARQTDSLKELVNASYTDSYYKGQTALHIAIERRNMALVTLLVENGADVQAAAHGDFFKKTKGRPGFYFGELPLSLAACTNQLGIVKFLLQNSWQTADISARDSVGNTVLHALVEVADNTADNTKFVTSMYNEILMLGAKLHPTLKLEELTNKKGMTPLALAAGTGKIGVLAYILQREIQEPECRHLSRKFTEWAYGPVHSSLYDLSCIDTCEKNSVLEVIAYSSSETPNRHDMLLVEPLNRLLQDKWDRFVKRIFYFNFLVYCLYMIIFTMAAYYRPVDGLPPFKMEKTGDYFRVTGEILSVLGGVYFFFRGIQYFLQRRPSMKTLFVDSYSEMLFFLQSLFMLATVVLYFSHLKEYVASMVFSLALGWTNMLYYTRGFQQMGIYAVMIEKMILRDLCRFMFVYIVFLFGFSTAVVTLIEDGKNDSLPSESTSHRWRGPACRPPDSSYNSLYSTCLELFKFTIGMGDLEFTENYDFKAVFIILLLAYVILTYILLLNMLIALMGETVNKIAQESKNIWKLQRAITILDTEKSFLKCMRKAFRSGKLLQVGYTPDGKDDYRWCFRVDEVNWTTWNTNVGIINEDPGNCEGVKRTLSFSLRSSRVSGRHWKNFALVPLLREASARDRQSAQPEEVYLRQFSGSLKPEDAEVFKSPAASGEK
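Fluo-8 calcium influx in TRPV1-expressing cells, kinetic read (ex 480/em 520 nm). Compound added and read 3 min for agonist activity, followed by capsaicin at EC20 final and 2 min further read for enhancement.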
Sfp inh – inhibitors of Bacillus subtilis Sfp phosphopantetheinyl transferase. Biochemical Sfp PPTase activity, qHTS. Q9F4F7. 310,000 compounds, 3.5% hits. Potency, µM, for inactives: max response, negative = inhibition, usual class: inhibitors; active means well fitted inhibition curve with a large enough effect; inconclusive means small, poorly fitted or top-dose-only effect, or another doubt; inactive means no such curve, though single readings can be large or run the other way;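 further: the enzyme is Sfp with the accession as filed and its product quenches rhodamine fluorescence; potency means the concentration at half of the fitted maximal effect; 0% = enzyme reaction without inhibitor and -100% = no enzyme wells; top concentration of the series not given in the record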
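Buffer: 50 mM Hepes-Na pH 7.6, 10 mM MgCl2, 0.01% Nonidet P-40, 0.01% BSA. Enzyme 15 nM, pre-exposed to compound 15 min; substrates then added and fluorescence change tracked over 30 min.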
D2 PAM – potentiates the human D2 dopamine receptor allosterically | P14416 | DiscoveRx D2 beta-arrestin cells, luminescence, 90 min; 100% = 57 uM dopamine signal | potentiation, % (concentration not given with the values) | 360,000 compounds, 0.23% hits | AID 624464; active = potentiation of 50% or more; inconclusive = 30% to 50%; inactive = 30% or less;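 further: tested on top of an EC20 dose of dopamine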
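D2 cells co-treated with compound plus 50 nM dopamine (EC20) for 90 min at 37 deg C to detect potentiation. Beta-arrestin recruitment was read as enzyme-fragment luminescence after 1 h at ambient temperature. Full response was set by 57 uM dopamine.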
ClpP mod – qHTS Assay for Activators of ClpP; purified B. subtilis ClpP, FRET peptide cleavage, 20 min; Potency, µM (titrated, usually from 57.5 µM), inactives show top-dose activity change, negative = active; 340,000 compounds, 1.9% hits; active = well fitted falling curve with a large enough effect; inconclusive = small, poorly fitted or top-dose-only effect; inactive = no such curve, though single readings can be large or run the other way; further: potency means the concentration at half of the fitted maximal effect; the source files actives as falling curves though it sought activators and does not explain the sign; nearly all actives have a fitted effect of over 65% in size; many hits overshoot -100%
Target sequence (P80244 whole entry, looked up): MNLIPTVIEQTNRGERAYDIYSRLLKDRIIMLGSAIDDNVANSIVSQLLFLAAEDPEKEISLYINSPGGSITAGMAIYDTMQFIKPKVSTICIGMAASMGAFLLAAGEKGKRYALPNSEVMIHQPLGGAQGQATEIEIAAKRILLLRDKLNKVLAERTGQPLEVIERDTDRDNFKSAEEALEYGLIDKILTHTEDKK
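ClpP 10 microg/mL final, pH 8 Tris/KCl buffer with BSA, glycerol, Tween-20; compound pinned in; FRET-FV substrate; RT 20 min; Ex320/Em430; ΔFRET vs ADEP 5.8 microM, DMSO, no enzyme.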
gsp antagonist – gsp mutant antagonism. gsp-mutant cells, cAMP HTRF, 30 min; control for the full effect not named in the record. Potency, µM (series often up to 76.9 µM), for the others: at the top dose activity change, negative = inhibition, actives largely listed as inhibitors. 340,000 compounds, 0.4% hits. AID 624288; active = falling curve of any shape with a large fitted effect; inconclusive = falling curve, mostly with a smaller effect; inactive = flat or rising curve; cell line not stated here;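 further: intracellular cAMP measured with PDE inhibitor Ro 20-1724 present during compound exposure; potency means the concentration at half of the fitted maximal effect; on the % scale 0 is the no-effect control and ±100 the full control effect; nearly all actives have a fitted effect of over 65% in size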
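Cells in G418 medium, seeded 16-24 h, 37C; buffer exchange to DPBS + 1 mM CaCl2, 0.5 mM MgCl2, 0.05% BSA; cpds in DMSO + […] (300 uM stock), 30 min 37C; HTRF cAMP detection.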
Menin MLL FP FL – displaces fluorescein MLL peptide from human menin | Fluorescence polarization, fluorescein-MLL peptide displacement from menin | FP activity change, % at 61.4 µM | 290,000 tested, under 10 active | AID 1766; inconclusive = falling polarisation curve, or a change in total fluorescence; inactive = total fluorescence flat and polarisation flat or rising; no compound was filed as active; the % refers to the polarisation; negative = inhibition;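 further: % of control where 0% means no effect; inhibitors lower the polarisation; unlabelled MLL peptide was the positive control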
Numbers without * were called inactive; ? = inconclusive; / = no result given; & = joins results of further samples; [ ] = dose if it differs, or a comment.

SMILES	gsp ag	TRPV1 potentiator	Sfp inh	D2 PAM	ClpP mod	gsp antagonist	Menin MLL FP FL
O=C1CC(=O)Nc2cc(S(=O)(=O)Nc3ccc(Cl)c(C(F)(F)F)c3)ccc2N1	-0.4%	14.9	21.2%	6.4	1.8%	-2.1%	/
COc1ccc(OC)c(/C=N/Nc2nncn2/N=C/c2cc(OC)ccc2OC)c1	4.7%	4.2	-27.7%	-9.7	-10.1%	18.0%	-0.5
O=C(CNC(=O)c1cccc(Br)c1)NCCc1nc2ccccc2[nH]1	5.6%	17.7	-1.5%	-11.8	-0.6%	-1.5%	0.8
COc1ccc(S(=O)(=O)N(CC(=O)NC2CC2)c2ccc(C)cc2)cc1OC	-0.3%	0.0	13.8%	0.8	-1.1%	14.8%	-0.9
Cc1ccc(-n2c(C)nc3ncnc(-c4ccccc4)c32)cc1	-10.1%[15.4 µM]	-11.7	-1.4%	-2.6	/	6.8%	8.8
Cc1[nH]n(-c2ccccc2)c(=O)c1C=Nc1cccc2cccnc12	3.4%	-3.2	-8.7%	-52.5	-8.9%	-17.6%	1.5
Cc1ccc2nc(N3C(=O)C(O)=C(C(=O)c4ccco4)C3c3ccc(C)o3)sc2c1 (stereo not given)	4.9%[15.4 µM]	-6.4	?	-1.9	/	-5.7%	?
COc1ccc(/C=C(\C#N)c2n[nH]c(Cn3cncn3)n2)cc1	-0.5%[15.4 µM]	?	4.7%	-7.3	/	-13.4%	0.1
O=C(CSc1ccccc1Cl)N1CCC(c2nc3ccccc3s2)CC1	-20.6%	-25.3	-11.1%	-8.6	-2.4%	6.5%[15.4 µM]	2.0
CCc1noc(C)c1C(=O)N(C)CC(=O)Nc1ccc(OC)cc1	0.4%	?	/	-19.0	-2.6%	21.1%	/
CC1CCN(C(=O)C2CCN(C(=O)c3ccc(C(C)(C)C)cc3)CC2)CC1	-0.3%[15.4 µM]	-11.4	6.8%	-1.6	/	3.1%	-3.6
COc1ccc(CCN2C(=O)CC(N3CCN(S(=O)(=O)c4ccccc4)CC3)C2=O)cc1OC (stereo not given)	4.0%	-2.2	13.9%	-77.7	-0.5%	-2.8%	1.5
O=C(C(=C1NCCN1)n1cncn1)c1ccccc1	-29.6%	4.5	6.2%	-2.7	-1.7%	4.7%	-1.9
O=c1cc2c(nn1Cc1ccc(Cl)cc1Cl)-c1ccccc1CC2	-0.9%	-0.1	-29.9%	3.8	-21.2%	17.0%	3.4
c1ccc(NNC2=NCCS2)cc1	-22.1%	5.5	?	-12.9	/	-23.8%	1.2
O=C(NCc1ccc(F)cc1)C1(S(=O)(=O)c2ccc(Cl)cc2)CC1	13.7%	0.2	8.1%	-4.7	/	0.4%	3.1
CCOC(=O)c1sc(NC(=O)c2c(OC)cccc2OC)nc1C	0.4%	-3.7	8.4%	-3.3	-3.1%	-8.6%	1.6
Cc1ccccc1CN1CCN(CC(=O)NCCCN2CCN(c3ccc(F)cc3)CC2)C1=O	5.7%	-8.1	-3.6%	-37.4	-4.5%	-4.1%	3.1
CC(C)C(O)(C#CCN1CCCCC1)c1ccccc1 (stereo not given)	?	1.0	21.6%	-22.1	-0.6%	0.6%	-0.4
CCCCn1c(N2CCC(Cc3ccccc3)CC2)nc2c1c(=O)[nH]c(=O)n2C	14.9%	1.7	?	-9.9	-1.6%	8.9%	0.0
COc1ccccc1N1CCN(C(=O)COc2ccc(Cl)cc2)CC1	30.7%	-12.0	3.5%	1.8	-3.1%	-6.8%	0.5
O=C(CNC(=O)c1ccc(F)cc1)N/N=C/c1cn[nH]c1-c1ccccc1	-4.4%[15.4 µM]	0.5	14.8%	-1.8	/	-6.3%	3.1
COc1ccc(OC)c(NC(=O)c2ccc3nc(-c4ccccc4)c(-c4ccccc4)nc3c2)c1	/	-5.0	?	/	/	/	4.4
COc1ccc(NC(=O)COC(=O)c2c(C)noc2C)c(OC)c1	-40.9%	4.5	2.3%	1.6	-0.4%	7.2%	-0.8
Cc1c(CN2CCCC(C(=O)Nc3cccc(-n4cccn4)c3)C2)cnn1C (stereo not given)	-6.5%	-12.3	7.6%	-19.4	0.4%	-2.1%	/
CC(/C=N/NC(=O)Cc1cccn1C)=C\c1ccco1	?	1.6	39.8µM*	-3.8	0.8%	4.7%	6.7
COC(=O)Cc1c(C)c2ccc(OCC(C)=O)c(C)c2oc1=O	28.2%	2.1	-2.6%	-9.6	?	2.0%[15.4 µM]	2.1
CCO[C@H]1OC(C(=O)NCc2nc3ccccc3[nH]2)=C[C@@H](c2csc3ccccc23)[C@@H]1CCCO	/	-1.5	18.0%	-2.2	-2.2%	-15.1%	6.6
Cc1cc(Oc2ccc(=O)[nH]n2)nc(Cl)n1	14.1%	0.4	-7.1%	-11.7	-0.1%	7.6%	1.5
NC(=S)N/N=C/c1ccc(-c2cc(Cl)ccc2Cl)o1	-19.6%	?	-24.2%	-7.2	-12.8%	-3.1%	2.3
Cc1c(Cc2ccc3c(c2)OCO3)sc(NC(=O)c2ccccc2)c1C(N)=O	?	0.1	?	-4.4	4.0%	-2.1%	3.7
O=C1CCC(=O)N1c1ccccc1OS(=O)(=O)c1ccccc1	5.9%[15.4 µM]	0.6	13.2%	-10.1	-1.5%	9.6%	/
CC(=O)OCCOc1nc(N(C)C)nc(N(C)C)n1	-5.7%	8.6	4.5%	-11.4	-0.7%	1.4%	-0.9
CCOCCCNC(=O)c1cccs1	?	8.3	23.6%	-5.1	0.5%	0.4%	10.6
CCOC(=O)N1CCN(C(=O)c2ccc3c(SCC(=O)O)c4c(nc3c2)CCCC4)CC1	-41.4%[inhibitor]	-2.7	14.0%	1.1	-8.2%	8.6%	0.6
COC(=O)c1[nH]c2ccc(F)cc2c1NC(=O)C1=COCCO1	-3.7%	-19.4	-3.1%	-25.2	?	1.5%	-1.7
O=C(COC(=O)c1ccc2[nH]c3c(c2c1)CCCC3)Nc1ccccc1Cl	-5.6%[15.4 µM]	2.3	-1.9%	-5.5	2.6%	0.2%	0.5
COc1ccc(-c2cc(OC)c3c(C)oc(C)c3c(=O)c2)cc1OC	-26.9%	9.0	?	2.0	-1.8%	-3.8%	?
O=C(CN1C(=O)c2ccccc2S1(=O)=O)Nc1ccon1	-47.6%[inhibitor]	-12.5	/	0.1	-2.8%	-1.4%	/
COCCCNc1c2c(nc3nnnn13)CCCC2	5.9%[15.4 µM]	-0.5	13.3%	-0.1	/	5.4%	-2.9
CCCOc1ccc(C2C(C(=O)c3ccc(C)o3)=C(O)C(=O)N2CCCn2ccnc2)cc1 (stereo not given)	?	/	/	-4.3	-0.4%	24.7%	/
N#C/C(=C(/O)COC(=O)CCC1CCCCC1)c1nc2ccccc2[nH]1	0.6%	13.3	16.2%	7.5	-3.5%	11.7%	11.2
COCC(=O)Oc1c(S(=O)(=O)c2ccc(C)cc2)c(C)nn1C(C)(C)C	4.5%	4.5	5.3%	-3.4	1.5%	-0.3%	1.7
COc1ccc(Nc2nnc(-c3ccccc3)c3ccccc23)cc1C(=O)N1CCCCC1	26.2%	14.1	-16.0%	-12.7	/	-28.2%	4.8
CN1C(C(=O)NCc2ccc(OC(F)(F)F)cc2)CC2Cn3c(nc4ccccc43)C21 (stereo not given)	/	1.3	17.6%	11.6	0.3%	-0.7%	-2.5
O=C(Cn1nnc(-c2ccccc2)n1)NCc1ccccc1	-1.2%	-11.9	12.9%	0.5	1.5%	4.8%	-0.5
COc1ccc(OC)c(NC(=O)C2CC(=O)N(CCc3ccc(F)cc3)C2)c1 (stereo not given)	-1.0%[15.4 µM]	/	/	-4.2	/	7.0%	/
OC(CCN1CCCC1)(c1ccccc1)C1CCCCC1 (stereo not given)	/	8.8	20.9%&6.3%	-24.3	-1.7%	-4.5%	-6.9&2.3

Random excerpt: 2 compounds from above
SMILES	gsp ag	TRPV1 potentiator	Sfp inh	D2 PAM	ClpP mod	gsp antagonist	Menin MLL FP FL
CN1C(C(=O)NCc2ccc(OC(F)(F)F)cc2)CC2Cn3c(nc4ccccc43)C21 (stereo not given)	/	1.3	17.6%	11.6	0.3%	-0.7%	-2.5
O=C(Cn1nnc(-c2ccccc2)n1)NCc1ccccc1	-1.2%	-11.9	12.9%	0.5	1.5%	4.8%	-0.5

The results go on:
SMILES	gsp ag	TRPV1 potentiator	Sfp inh	D2 PAM	ClpP mod	gsp antagonist	Menin MLL FP FL
CCOc1ccccc1N1CCN(c2nc(N)c(C#N)c(CC#N)c2C#N)CC1	?	-3.4	15.8µM*	11.8	-6.7%	-1.7%	?
N/C(=N\OC(=O)c1ccccc1Cl)c1cccnc1	0.0%	-12.0	6.7%	96.3*	1.1%	?	-3.2
Cc1cc(OC(=O)c2cc(Br)ccc2Cl)c([N+](=O)[O-])c(=O)[nH]1	25.2%	12.1	14.2%	3.4	0.8%	5.4%	-4.0
CCN(C(=O)CSc1nnc(-c2ccc(C)cc2)n1N)c1c(N)n(Cc2ccccc2)c(=O)[nH]c1=O	24.2%[15.4 µM]	24.2	/	-21.8	1.1%	-2.1%	/
COc1ccccc1-c1nc2cc(Cl)ccc2c(=O)n1O	-20.1%	14.5	5.2%	-1.9	/	-11.9%	-3.3
Cn1c(NC(=O)c2ccc(S(=O)(=O)N3CCOCC3)cc2)cc(=O)n(C)c1=O	17.0%	6.2	5.4%	-12.2	-2.3%	8.0%	6.7
CC(=O)c1c(C)nc(C)nc1NC(=O)C(C)C	-3.7%	-1.5	-10.0%	-4.4	-0.6%	12.6%	9.4
O=C(O)COc1ccccc1/C=N/Nc1ccc(S(=O)(=O)N2CCOCC2)cc1[N+](=O)[O-]	-1.8%	4.0	-6.5%	-2.6	/	-5.4%	-0.4
CCOc1ccccc1N1C(=O)CC(Sc2ncccc2C(=O)O)C1=O (stereo not given)	-10.8%	-1.3	1.9%	5.2	0.3%	3.0%	3.7
CCOC(=O)N1CCC(N(CCN(C)C)C(=S)Nc2cc(Cl)cc(Cl)c2)CC1	-9.5%	-5.9	-23.6%	-1.8	0.2%	-3.9%	-0.6
O=C(C1CCCN(Cc2ccccc2C(F)(F)F)C1)N1CCCCC1 (stereo not given)	-1.6%	-31.0	-9.7%	-30.0	1.5%	1.6%	1.0
Cc1nc(-c2ccccc2)sc1-c1ccnn1C	-11.1%	20.5	2.8%	-8.8	4.2%	-9.1%	2.7
CC(=O)N1CCCc2cc(S(=O)(=O)Nc3cccc(C)c3C)ccc21	-32.4%[inhibitor]	22.1	10.7%	-2.9	/	-6.1%	-2.2

Compound activity (PubChem BioAssay)
